Source: PubChem (National Center for Advancing Translational Sciences (NCATS))
TRPV1 PAM: enhances activation of the human vanilloid receptor TRPV1; Q8NER1; potentiation, % at 8.33 µM; hit rate 0.02% among 320,000; TRPV1-expressing cells, Fluo-8 calcium influx, capsaicin EC20 potentiation; host cell line not named in the record; control for the full effect not named in the record; active means potentiation above 80%; inconclusive means 30% to 80%; inactive means below 30%; further: 0% is about no effect
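TRPV1-expressing cells were cultured overnight at 35.5C and loaded with Fluo-8 calcium dye for 40 to 90 min at room temperature. After a 10 s baseline, compound was added and calcium influx was read kinetically for 3 min (ex 480/em 520 nm).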
CtBP-E1A inh: inhibitors of CtBP/E1A interaction | AID 651724 | AlphaScreen GST-E1A/His-CtBP binding, 1536-well; stronger effect = lower value; control for the full effect not named in the record | hit rate 0.49% among 340,000 | activity change, % (concentration not given with the values); in the data active means activity change below about -65%; inconclusive means about -30% to -65%; inactive means above about -30%; further: on the % scale 0 is the no-effect control and ±100 the full control effect
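In 5 uL wells, 23 nL compound meets equimolar GST-E1A and His-CtBP (5X stock 125 nM each) for 2 h, 37 °C. Beads (5X, 50 ug/mL) then 1 h, 37 °C, dark.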
Six1-Eya2 inh: Six1/Eya2 interaction inhibition; AlphaScreen GST-Six1/His-Eya2 binding, biochemical; stronger effect = lower value; control for the full effect not named in the record; activity change, % (concentration not given with the values); hit rate 0.56% among 360,000; AID 651725; in the data active = activity change below about -65%; inconclusive = about -30% to -65%; inactive = above about -30%; further: on the % scale 0 is the no-effect control and ±100 the full control effect
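Compounds are tested against tagged Six1 and Eya2 proteins bridged by glutathione donor and nickel acceptor beads; after a one-hour incubation at 37 °C without light, AlphaScreen emission is recorded.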
PINK1 expr mod: PINK1 expression modulation; PINK1 immunofluorescence, high-content cytometry, 24 h; hit rate 0.2% among 410,000; Potency, µM (titrated, usually from 76.6 µM), for the others: at the top dose activation (PINK1 increase), most hits filed as activators; AID 624263; active = well fitted activation curve with a large enough effect; inconclusive = small, poorly fitted or top-dose-only effect; inactive = flat fitted curve, though single readings scatter; cell line not stated here;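 further: potency means the concentration at half of the fitted maximal effect; % of control where 0% means no effect; nearly all actives have a fitted effect of over 65% in size; a mitochondrial uncoupler was the plate control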
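PINK1 protein, normally rapidly degraded, was detected by immunofluorescence after 24 hour compound treatment of a stable cell line. Titration data (5 concentrations) came from laser-scanning cytometry, with CCCP-treated wells as controls.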
D2 agonist: activates the human D2 dopamine receptor; P14416; DiscoveRx PathHunter D2 beta-arrestin, luminescence, 90 min; 100% = 57 uM dopamine signal; activation, % (no concentration beside the values); hit rate 0.084% among 360,000; AID 624465; in the data active = activation above about 40%; inconclusive = about 15% to 40%; inactive = below about 15%; further: compound concentration not given in the record; the text of the record calls up to 30% inactive
Target sequence (P14416 whole entry, looked up): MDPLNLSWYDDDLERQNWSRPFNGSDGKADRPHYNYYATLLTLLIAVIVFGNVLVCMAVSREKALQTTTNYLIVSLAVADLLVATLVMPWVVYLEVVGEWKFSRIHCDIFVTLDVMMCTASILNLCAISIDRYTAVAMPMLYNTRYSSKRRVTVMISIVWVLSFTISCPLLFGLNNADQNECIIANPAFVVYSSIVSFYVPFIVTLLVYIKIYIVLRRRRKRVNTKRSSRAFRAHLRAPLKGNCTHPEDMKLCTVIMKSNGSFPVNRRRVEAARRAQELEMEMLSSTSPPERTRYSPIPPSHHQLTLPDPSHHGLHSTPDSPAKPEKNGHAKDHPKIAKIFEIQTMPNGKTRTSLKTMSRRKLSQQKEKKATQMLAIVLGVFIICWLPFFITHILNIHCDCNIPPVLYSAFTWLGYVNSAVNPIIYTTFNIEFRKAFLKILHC
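DiscoveRx PathHunter D2 beta-arrestin cells (2,100/well) attached overnight, then compound-stimulated 90 min at 37 C in HBSS/10 mM HEPES/0.1% Tween-20 buffer; beta-galactosidase complementation read by luminescence after 1 h at ambient temperature. Dopamine 57 uM final (EC100) as control.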
Sfp inh: Sfp phosphopantetheinyl transferase inhibition | Biochemical Sfp PPTase activity, qHTS | Potency, µM, inactives show max response, negative = inhibition, usual class: inhibitors | hit rate 3.5% among 310,000; active means well fitted inhibition curve with a large enough effect; inconclusive means small, poorly fitted or top-dose-only effect, or another doubt; inactive means no such curve, though single readings can be large or run the other way;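 further: the enzyme is Sfp with the accession as filed and its product quenches rhodamine fluorescence; potency means the concentration at half of the fitted maximal effect; 0% = enzyme reaction without inhibitor and -100% = no enzyme wells; top concentration of the series not given in the record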
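Fluorescence-quenching assay: 15 nM Sfp-PPTase preincubated 15 min at room temperature with compound, then 5 uM rhodamine-CoA and 12.5 uM BHQ-2-labelled YbbR peptide added. Fluorescence (ex 525/em 598 nm) read at start and after 30 min; difference gives rate.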
D2 PAM: potentiates the human D2 dopamine receptor allosterically; AID 624464; hit rate 0.23% among 360,000; potentiation, % (no concentration beside the values); DiscoveRx D2 beta-arrestin cells, luminescence, 90 min; 100% = 57 uM dopamine signal; active = potentiation of 50% or more; inconclusive = 30% to 50%; inactive = 30% or less;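 further: compound concentration not given in the record; tested on top of an EC20 dose of dopamine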
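PathHunter beta-arrestin assay in DiscoveRx D2 cells. Compounds were added with an EC20 of dopamine (50 nM final) for 90 min at 37 deg C. Luminescence was read 1 h after detection reagent, with 57 uM dopamine as the EC100 control.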
* marks the source's active call; other numbers are inactive results; ? = inconclusive; · = no result given; & = joins results of further samples; [ ] = remark or other dose.

Screens in order – TRPV1 PAM	CtBP-E1A inh	Six1-Eya2 inh	PINK1 expr mod	D2 agonist	Sfp inh	D2 PAM
1) CC1=C(C(=O)Nc2ccccn2)C(c2ccc(F)cc2)n2ncnc2N1 (centres undefined)
 : 24	4	3	·	-1.1	2%	-14
2) CC(C)(C)C(=O)C1=C(O)C(=O)N(Cc2ccccc2)C1c1ccccc1F (centres undefined)
 : ?	-14	33	-1.5%	-5.1	35%[activator]	-25
3) O=C1NC(Cc2ccccc2)c2nc3cc(F)ccc3c(=O)n2-c2cc3ccccc3cc21 (centres undefined)
 : ·	-1	-16	7.1%	-1.8	·	1
4) CN(CC(=O)Nc1ccc(Cl)c(Cl)c1)C(=O)C12CC3CC(CC(C3)C1)C2
 : -10	5	-5	?	1.0	5%	-9
5) CC1(C)C(C(=O)OCC(Cl)(Cl)Cl)N2C(=O)C(NC(=O)Cc3ccccc3)C2S1=O (centres undefined)
 : 22	-19	10	2.8%	-10	-12%	-3
6) COCCCNC(=O)C1=CCN(S(=O)(=O)c2ccc(C)cc2)CC1
 : 6	-1	-2	-1.1%	-2.5	9%	17
7) O=C(CSc1nnc(-c2ccccn2)n1Cc1ccccc1)N1CCCC1
 : -21	-1	-2	-0.3%	-3.8	-2%	1
8) COC(C(=O)Nc1ccc(S(=O)(=O)N2CCCCC2)cc1)c1ccccc1 (centres undefined)
 : 4	-12	-6	?	0.2	10%	0
9) CCc1cccc(NC(=O)CS(=O)Cc2nc(-c3ccc(C)cc3)oc2C)c1 (centres undefined)
 : ·	-8	-3	2.1%	1.8	-10%	-5
10) Cn1c(=O)n(C)c2cc([N+](=O)[O-])c(N3CCN(C(=O)c4ccccc4Br)CC3)cc21
 : 6	-14	-7	-0.5%	3.8	-22%	-1
11) CC(C)OC(=O)c1cccc(C(=O)Nc2cccc(NC(=O)c3cccc(C(=O)OC(C)C)n3)n2)n1
 : -1	0	-2	6.6%	-2.0	0%	-6
12) CSc1nc2ccccc2nc1N(C)S(=O)(=O)c1ccc(C)cc1
 : 11	6	14	0.0%	-2.1	11%	-6
13) O=C(O)C1C2CCC(C2)C1C(=O)NCCCn1ccnc1 (centres undefined)
 : 5	-2	8	1.4%	-2.3	-11%	2
14) Cn1cccc1C(=O)OCC(=O)NNC(=O)c1ccc([N+](=O)[O-])cc1
 : ·	-1	20	0.9%	-3.4	·	2
15) O=C(Nc1cccnc1)c1cc(-c2ccc3c(c2)OCO3)on1
 : -1	4	5	14%[38.3 µM]	-0.2	-7%	-9
16) CNC(=O)CSc1nnc(-c2ccc(S(=O)(=O)N3CCCC3)cc2)n1-c1cccc(C)c1C
 : -29	-4	-1	3.3%[38.3 µM]	1.7	-6%	-15
17) CC(C)Nc1nnc(SC(C)C(=O)NCc2ccc3c(c2)OCO3)s1 (centres undefined)
 : 1	3	-5	-2.5%	-2.7	11%	-8
18) NC(=O)C1CN(C(=O)c2nn(Cc3ccccc3)c(=O)c3ccccc23)c2ccccc2O1 (centres undefined)
 : -11	5	6	3.3%	-0.6	·	1
19) O=C1c2cc(Cl)ccc2OC2(CCNCC2)C12CC(c1ccc(Cl)cc1)=NO2 (centres undefined)
 : 1	-14	-1	5.2%	-4.1	?	-9
20) CCN(CC)S(=O)(=O)c1ccc(N/N=C(\C)c2ccc(OC)cc2O)nc1
 : 5	·	?	4.6%	-9.1	15%	-31
21) CSc1cccc(CN2CCN(Cc3ccccc3)C(CCO)C2)c1 (centres undefined)
 : -16	·	-7	-0.1%	-1.8	-3%	-8
22) COc1ccc(-c2nc(N=Nc3ccc(O)cc3)n[nH]2)cc1
 : 7	-5	-2	1.2%	-4.9	6%	-26
23) COc1ccccc1NC(=O)c1ccc(NC(=O)C2CC2C)cc1 (centres undefined)
 : ·	7	-2	0.3%	3.0	·	2
24) CC(C)(C)OC(=O)CN1C(=O)C(Sc2n[nH]c(-c3ccccc3)n2)CCc2ccccc21 (centres undefined)
 : 1	2	2	5.0%[38.3 µM]	-3.5	3%	-5
25) COCCn1nnnc1C(c1ccccc1Cl)N1CCN(c2ccccc2OC)CC1 (centres undefined)
 : 12	-1	-4	-1.5%	-3.9	24%	-14
26) O=C(c1cc([N+](=O)[O-])ccc1N1CCOCC1)N1CCCC1
 : 13	-5	11	0.5%	-1.6	21%	-17
27) CC1=C(C)C(O)N(Cc2ccccc2)C1=O (centres undefined)
 : -1	·	1	2.1%	-0.1	11%	-2
28) Cc1cccc(NC2=NCC(=O)N2Cc2ccccc2)c1
 : 3	1	16	-1.7%	-2.5	8%	6
29) CC1(Cc2ccc3ccccc3n2)C(=O)Nc2ccc(OC(F)(F)F)cc21 (centres undefined)
 : ·	-6	1	3.7%	-2.2	·	-6
30) COCCC(=O)N1CCCC(C(=O)c2ccc3c4c(cccc24)CC3)C1 (centres undefined)
 : -21	·	-10	0.7%	-0.1	-5%	0

The final 3 records of the part above come first, to join the parts:
Screens in order – TRPV1 PAM	CtBP-E1A inh	Six1-Eya2 inh	PINK1 expr mod	D2 agonist	Sfp inh	D2 PAM
28) Cc1cccc(NC2=NCC(=O)N2Cc2ccccc2)c1
 : 3	1	16	-1.7%	-2.5	8%	6
29) CC1(Cc2ccc3ccccc3n2)C(=O)Nc2ccc(OC(F)(F)F)cc21 (centres undefined)
 : ·	-6	1	3.7%	-2.2	·	-6
30) COCCC(=O)N1CCCC(C(=O)c2ccc3c4c(cccc24)CC3)C1 (centres undefined)
 : -21	·	-10	0.7%	-0.1	-5%	0
31) O=C(NCCN1CCOCC1)c1ccccc1OCc1ccccc1
 : ·	-2	3	0.9%	-0.4	·	-12
32) Cc1ccc(SCCSc2nc(N)cc(=O)[nH]2)cc1
 : 7	·	-8	0.9%	3.6	9%	-16
33) Cc1nn(CC(=O)c2ccccc2Cl)c(C)c1[N+](=O)[O-]
 : -11	-1	-2	6.1%	-1.9	12%	2
34) O=[N+]([O-])c1cccc(-c2ccc3nnc(SCc4cccnc4)n3n2)c1
 : ·	-4	4	0.7%	-3.8	·	0
35) Cc1ccc(C(=O)OCC(=O)NCc2cccs2)cc1
 : -26	2	8	0.2%	-5.6	2%	-5
36) CCOc1ccccc1NS(=O)(=O)c1ccc(-c2cnc(C3CC3)o2)cc1
 : 12	·	0	0.5%&5.9%	2.8	-12%	-10
37) COc1ccc(CN2C3CCCC2CC(NC(=O)Nc2ccccc2C)C3)cc1 (centres undefined)
 : -6	1	2	0.1%	-1.4	12%	-20
38) CN(C)S(=O)(=O)c1ccc(SCC(=O)Nc2cccc(S(=O)(=O)N3CCCC3)c2)nc1
 : ·	·	2	0.2%	-0.2	·	-4
39) COc1cc(Br)cc(C=Nc2cccc(C(F)(F)F)c2)c1O
 : 3	-16	-2	-2.0%	-6.7	-6%	-33
40) CSc1ccccc1C(=O)N1CCC2(CC1)CC(=O)c1ccccc1O2
 : 10	-2	0	-1.5%	-0.8	·	-1
41) COC(=O)CNC(=O)CN1C(=O)N(c2cccc(Cl)c2)C(N(O)C(=O)Nc2cccc(Cl)c2)C1(C)C (centres undefined)
 : 25	-3	-8	0.9%	-0.9	-18%	-3
42) CCN(CC)c1ccc(/C=N/NC(=O)CNC(=O)c2ccccn2)cc1
 : 2	-8	1	0.0%	-3.0	5%	-9
43) Cc1nc2ccc(-c3nc4ccccc4[nH]3)cc2[nH]1
 : 10	?	?	-0.4%	0.3	20%	3
44) O=C(O)c1cc(N2CCCCC2)nc2ccccc12
 : ·	-4	-5	0.6%	-3.4	·	-9
45) CC#CCN1c2ccccc2[C@]23C[C@@H](C(=O)OC)N=C2NC(C(=O)OC)=C(C(=O)OC)[C@H]13
 : 18	6	0	0.0%	-1.3	8%&-5%	5
46) CCOc1ccc(S(=O)(=O)n2cnc3ccccc32)cc1
 : -13	9	4	0.3%	2.4	26%	-3
47) Cc1sc2ncnc(N3CCC(C(=O)Nc4ccccc4C(C)(C)C)CC3)c2c1C
 : ?	0	-9	0.7%	-5.2	·	-1
48) Cc1ccc(Nc2c([N+](=O)[O-])ccc3nonc23)c(C)c1
 : 11	-2	?	5.4%	3.2	-4%	22
49) Fc1ccc(-c2csc3nnc(SCc4cccnc4)n23)cc1
 : 17	7	3	13%[38.3 µM]	3.5	15%	-13
50) COc1ccc(OC)c(CC(=O)Nc2ccc3c(c2)c(=O)n(C)n3Cc2cccc(C(F)(F)F)c2)c1
 : ·	-14	13	5.5%	1.7	·	-2
51) O=C(NC1CC1)c1cc(=S)[nH]c2ccccc12
 : ·	5	6	0.0%	-5.7	·	-15
52) O=C(NCc1ccccc1)C1C(=O)N(Cc2ccccc2)C(=O)C1C1(O)CCCC1 (centres undefined)
 : -8	5	1	-0.4%	-1.7	23%	4
53) CCC1CN(C(=O)N2CCC(C(=O)NCc3ccccc3OC)CC2)c2ccccc2O1 (centres undefined)
 : 12	110	-2	-0.9%	6.5	17%	-1
54) CCCCCOC(=O)CSc1nc2c(c(=O)[nH]c(=O)n2C)n1CCc1ccccc1
 : 4	7	-3	-1.1%	-3.0	-14%	-14
55) Cc1ccc(C(=O)NCC(c2cccs2)N(C)C)cc1S(=O)(=O)N1CCOCC1 (centres undefined)
 : 2	-2	3	0.6%	0.7	·	-3
56) CCOC(=O)N1CCC(N(CCN(C)C)C(=S)Nc2cccc(Cl)c2C)CC1
 : -1	-2	1	-0.5%	0.5	-9%	-18
57) CCc1[nH]nc2c1C1(CCN(C(=O)c3ccccc3)CC1)C(C#N)=C(N)O2
 : 2	7	-1	·	-2.6	14%	7
58) CN(C)CCN1CCN(C(c2cc3ccccc3o2)c2nnnn2C(C)(C)C)CC1 (centres undefined)
 : ·	7	1	1.6%	·	·	·
